# HPGD block – blocks human HPGD enzyme activity; actives 4.3% (n = 150,000); purified HPGD, NADH fluorescence kinetic, PGE2 substrate; AID 894; Potency, µM, inactives show at the highest dose activity change, negative = inhibition, most hits filed as inhibitors; P15428; active = well fitted inhibition curve with a large enough effect (not every such curve was filed as active); inconclusive = small, poorly fitted or top-dose-only effect, or another doubt; inactive = no such curve, though single readings can be large or run the other way;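 also: top concentration of the series not given in the record; plate controls included wells without enzyme; inactives centre near -10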
# Target sequence (P15428 whole entry, looked up): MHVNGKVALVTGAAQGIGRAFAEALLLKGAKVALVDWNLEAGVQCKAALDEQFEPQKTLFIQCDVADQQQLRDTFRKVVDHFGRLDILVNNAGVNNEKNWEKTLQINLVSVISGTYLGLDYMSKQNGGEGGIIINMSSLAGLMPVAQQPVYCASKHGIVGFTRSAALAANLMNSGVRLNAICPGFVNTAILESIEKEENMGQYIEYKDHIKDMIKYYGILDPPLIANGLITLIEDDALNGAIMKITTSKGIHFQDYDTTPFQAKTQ
#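 20 nM HPGD preincubated 15 min at room temperature with compound in 50 mM Tris-HCl pH 8, 0.01% Tween 20. Started with 1 mM NAD+ and 30 uM prostaglandin E2; NADH fluorescence (360/450 nm) read 5 times over 30-s intervals, last minus first.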
# Numbers without * were called inactive; ? = inconclusive; & = joins results of further samples. % is scaled to controls: 0 for no effect and ±100 for the full control effect; potency is read from the fitted curve at half-maximal effect.
entry	smiles	HPGD block
1	O=C(N/N=C/c1ccccn1)c1cc(-c2ccc3ccccc3c2)n[nH]1	-22%
2	CSc1nnc(C2CCCN2)n1C (configuration not stated)	-10%
3	COCCNC(=O)CSc1nc2ccccc2c(=O)n1CCCC(=O)NCc1ccccc1	-9%
4	COc1cc(S(=O)(=O)N(Cc2ccccc2)Cc2ccccn2)ccc1-n1cnnn1	4%
5	CC(C)(O[C@@H]1O[C@H](CO)[C@@H](O)[C@H](O)[C@H]1O)[C@H]1Cc2cc3ccc(=O)oc3cc2O1	?
6	CC(/C=N/n1c(-c2ccco2)n[nH]c1=S)=C\c1ccccc1	2.5µM*
7	CC1C(=O)C(C)C(c2ccco2)NC1c1ccco1 (configuration not stated)	-19%
8	Cc1c(C(=O)OC2CCCC2C)[nH]c2c1C(=O)CCC2 (configuration not stated)	-15%
9	Cc1c(Br)c([N+](=O)[O-])nn1C(C)C(=O)NCc1cccnc1 (configuration not stated)	-2%
10	COc1ncc2nc(CCc3ccccc3)c(=O)n(Cc3ccc(F)cc3)c2n1	-13%
11	CCC(C)NC(=S)N(CCc1ccccc1)Cc1cc2cc(OC)c(OC)cc2[nH]c1=O (configuration not stated)	?
12	COc1cc(-c2nc(-c3ccc(NC(=O)c4ccc(Br)o4)cc3)no2)cc(OC)c1OC	-15%
13	CC(C)(C)C1CCc2[nH]nc(C(=O)O)c2C1 (configuration not stated)	-19%
14	Cc1cc(C)n(C(=O)CNC(=O)COc2ccccc2)n1	32µM*
15	CCc1c(C)nc2cc(-c3cccs3)[nH]n2c1=O	?
16	O=CNc1ccccc1	-5%
17	O=C(Cc1cc(=O)[nH][nH]1)N/N=C/c1ccccc1[N+](=O)[O-]	-15%
18	COCCNc1nc(SCC(=O)N2CCN(c3ccccc3OC)CC2)nc2ccccc12	5%
19	COC(=O)c1ccc(/C=C/C(=O)c2ccc(OC)cc2)cc1	-7%
20	CCN1C(=O)N[C@H](c2ccc(Br)cc2)C(C(C)=O)=C1C	3%&-19%
21	COc1ccc(NC(=O)c2sccc2SCC#N)cc1	-18%
22	O=C(CCS(=O)(=O)c1cccc2nonc12)Nc1cccc2c1CCCC2	-8%
23	Cc1ccc(-c2noc(CN3CCN(Cc4ccccc4)CC3)n2)cc1	-10%
24	COC(=O)C1CC(=O)c2ccsc2C1 (configuration not stated)	-1%
25	O=C(C1CCN(S(=O)(=O)N2CCOCC2)CC1)N1CCc2ccccc21	-4%
26	O=C(O)c1ccc(NS(=O)(=O)c2ccc(Cl)cc2)cc1	-12%
27	CCN1CCCC1CNC1=NCCCCC1 (configuration not stated)	-5%
28	C[C@@H](C(=O)NCCF)[C@H]1C[C@]1(C)[C@H](NC(=O)OCc1ccccc1)c1ccccc1	-5%
29	O=C1c2cccnc2C(=O)N1CO	-12%
30	CCOC(=O)C1NN=C(C(=O)c2ccc(C)cc2)C1c1ccc(C)cc1 (configuration not stated)	-17%
31	Cc1ccc(-c2nn(-c3ccccc3)c3[nH]c(=O)c(CNCc4ccccc4)cc23)cc1	-23%
32	c1ccc(CCNc2ncnc3c2cnn3-c2ccccc2)cc1	16µM*
33	CCCCCC(=O)Nc1ccccc1N1CCN(c2ccccc2)CC1	-14%
34	CCCC(C(=O)NCc1ccco1)N(C(=O)CNS(=O)(=O)c1ccccc1)C1CCCC1 (configuration not stated)	-3%
35	CCN(CC)c1ccc(C2C(C(=O)OCCOC(C)C)=C(C)NC3=C2C(=O)CCC3)cc1 (configuration not stated)	-16%
36	CS(=O)(=O)NCc1nnc(SCC(=O)NC2CCCCC2)n1-c1ccc(F)cc1	-2%
37	CCC1C2CN(C(C)=O)CC=C2C(C#N)=C(N)C1(C#N)C#N (configuration not stated)	-7%
38	CCOC(=O)CSc1nc2nc(C)cc(C)n2n1	-5%
39	Cc1ccc(NC(=O)c2ccco2)c(NC(=O)CN2C(=O)c3ccccc3C2=O)c1	3%
40	C[C@@H](O)CCC[C@H](O)/C=C/[C@H]1[C@H](O)CC(=O)[C@@H]1C/C=C\CCCC(=O)O	0%
41	O=c1[nH]c(-c2ccco2)nc2sc3c(c12)CCCC3	?
42	O=C(C1CC1)N(CCc1ccccc1)Cc1nc2ccccc2c(=O)[nH]1	-9%
43	CCC(=O)Nc1cccc(-c2nnc(SCC(=O)NCc3ccco3)n2C)c1	3%
44	COc1cc([C@@H]2[C@H]3CN(C)CC=C3C(C#N)=C(N)C2(C#N)C#N)cc2c1OCO2	-19%
45	Cc1ccc(C)c(NC(=O)CSc2nnc(-c3ccccc3C)o2)c1	-6%
46	O=C(CCCC(=O)N1CCN(c2ccc([N+](=O)[O-])cc2)CC1)c1ccccc1	-5%
47	CCOc1ccc(S(=O)(=O)N2CCN(C)CC2)c(C)c1C	-10%
48	O=C(Nn1cnc2ccccc2c1=O)c1ccccc1Cl	-14%
49	CC(=O)Nc1ccc(-c2cc(-c3ccc(NC(C)=O)cc3)nc(-c3ccccc3)n2)cc1	?
50	CCCCCCCc1c(C)nc(N2CCOCC2)[nH]c1=O	-2%

# Rewritten field by field: 2 of the compounds above.
[42] O=C(C1CC1)N(CCc1ccccc1)Cc1nc2ccccc2c(=O)[nH]1
  HPGD block: -9%
[43] CCC(=O)Nc1cccc(-c2nnc(SCC(=O)NCc3ccco3)n2C)c1
  HPGD block: 3%

# Arranged by value in HPGD block (lowest first): 3 from the list above
entry	smiles	HPGD block
48	O=C(Nn1cnc2ccccc2c1=O)c1ccccc1Cl	-14%
47	CCOc1ccc(S(=O)(=O)N2CCN(C)CC2)c(C)c1C	-10%
50	CCCCCCCc1c(C)nc(N2CCOCC2)[nH]c1=O	-2%

# Compounds listed so far containing a COOH group (three):
entry	smiles	HPGD block
13	CC(C)(C)C1CCc2[nH]nc(C(=O)O)c2C1 (configuration not stated)	-19%
26	O=C(O)c1ccc(NS(=O)(=O)c2ccc(Cl)cc2)cc1	-12%
40	C[C@@H](O)CCC[C@H](O)/C=C/[C@H]1[C@H](O)CC(=O)[C@@H]1C/C=C\CCCC(=O)O	0%

# Other structures follow:
entry	smiles	HPGD block
51	Cc1nn2c3c(cnc2c1-c1ccccc1)C(=O)CC(c1ccco1)C3 (configuration not stated)	-13%
52	O=C(Nc1nc(-c2ccccc2)c(-c2ccccc2)o1)c1ccc(F)cc1	?
53	COc1ccc(C2CC(c3ccc(F)cc3)Nc3nc(N)nn32)cc1OC (configuration not stated)	-9%
54	COC(=O)[C@@]1(Cc2ccc(F)cc2)[C@H]2c3cc(C(=O)N4CCCC4)n(Cc4c(CO)[nH]cc(C)c4=O)c3C[C@H]2CN1C(=O)c1ccccc1	-12%
55	O=C(Nc1cnn(C23CC4CC(CC(C4)C2)C3)c1)c1cnn2cccnc12	-17%
56	O=C(NCc1cccc(C(F)(F)F)c1)C1CC(c2ccccc2[N+](=O)[O-])=NO1 (configuration not stated)	-13%
57	COC(=O)Nc1ccc(Oc2ccccc2)cc1	?
58	C=CCc1ccc(O)c(OC)c1	2%&-16%&-2%
59	Cc1cn(CC[C@H](N)C(=O)O)c(=O)[nH]c1=O	-4%
60	CC1=C(C#N)C(c2ccc(O)cc2)C2=C(CC(C)(C)CC2=O)N1 (configuration not stated)	-27%
61	COc1ccc(C(=O)NCc2nnc(SCC(=O)N3CCc4ccccc43)n2C2CCCCC2)cc1	-7%
62	CC(Cc1cccs1)NC(=S)Nc1ccc(F)cc1 (configuration not stated)	-10%
63	COCCCNC(=O)c1ccc(CS(=O)(=O)c2ccc(OC)cc2)o1	-5%
64	Cc1ccc(C)c2[nH]c(=O)c(CCNC(=O)c3ccc4c(c3)OCO4)cc12	-20%
65	Cc1csc(NC(=O)CNS(=O)(=O)c2cccs2)n1	-5%
66	CCC(=O)N1CCc2cc(Br)cc(S(=O)(=O)CCC(=O)NCc3ccco3)c21	-7%
67	O=C(CNc1ccc2ccccc2c1)NNC1=NCCC1	?
68	Cc1cc(NC(=O)c2cc3nc4c(c(C(F)(F)F)n3n2)CCc2ccccc2-4)no1	?
69	O=C(NCc1cccnc1)c1cc(-c2ccco2)on1	-10%
70	CC(=O)c1ccc(N(C(=O)Cn2nnc3ccccc32)C(C(=O)NCc2ccccc2)c2ccccn2)cc1 (configuration not stated)	-4%
71	Cc1ccc(C(=O)N(CN2CCCC2=O)c2ccc(F)cc2)cc1C	4%
72	COc1ccccc1-c1noc(CCC(=O)Nc2cccc(C(F)(F)F)c2)n1	-24%
73	CC1SC(C)C(=O)N(CC(=O)Nc2ccc3c(c2)OCO3)C1=O (configuration not stated)	-10%
74	Cc1cc(=O)oc2cc(OCc3ccc(C(=O)N4CCN(c5ccccc5)CC4)cc3)ccc12	?
75	Cc1cccc(NC(=O)CSc2nnc(CSc3nc(C)cc(C)n3)o2)c1	-7%
76	COc1ccc(-c2coc3cc(O)ccc3c2=O)c(O)c1O	7.1µM*
77	CCn1c(-c2cc(-c3cc(C)ccc3C)nc3ccccc23)n[nH]c1=S	-27%
78	O=C(Nc1ccc2c(c1)OCO2)c1cc2ncc(Br)cn2n1	-2%
79	CCCCc1nc2c(c3c1C[C@H](C)OC3)CN(C(=O)c1cc(I)ccc1F)CC2	0%
80	COC(=O)C1=C(C)Nc2nc(-c3ccccc3)nn2C1c1ccc(C)o1 (configuration not stated)	-1%
81	CCC(NC(=O)c1ccccc1NC(=O)c1ccccc1)C(=O)NNC(=O)CSc1nc2ccccc2o1 (configuration not stated)	-12%
82	O=C(NCc1ccco1)C(NS(=O)(=O)c1cccc2nsnc12)c1ccccc1 (configuration not stated)	-19%
83	CCOC(=O)/C(C#N)=C/c1ccc(N2CCN(Cc3ccccc3)CC2)cc1	?
84	C/C(=N\NC(=O)C(=O)Nc1cccc(C(F)(F)F)c1)c1ccc(Cl)s1	?
85	CCCN1C2CCCC1CC(NC(=O)Nc1cccc(C(C)=O)c1)C2 (configuration not stated)	0%
86	CCOc1cc(C(N)=O)cc(Br)c1OC	-14%
87	COCCNC(=O)Cc1ccc(Br)cc1	-30%
88	COCCn1c(=NC(=O)c2ccc(S(=O)(=O)N3CCc4ccccc4C3)cc2)sc2cc(S(N)(=O)=O)ccc21	?
89	CCN(CC)c1ccc(C2Nc3cccc4cccc(c34)N2)c(O)c1	-17%
90	NCCCCC(NC(=O)C1CCCN1C(=O)C1CSSCC(N)C(=O)NC(Cc2ccc(O)cc2)C(=O)NC(Cc2ccccc2)C(=O)NC(CCC(N)=O)C(=O)NC(CC(N)=O)C(=O)N1)C(=O)NCC(N)=O (configuration not stated)	-8%
91	O=C(CSc1nnnn1C1CCCC1)N1CCCc2ccccc21	-13%
92	CSCC[C@H](NC(=O)OC(C)(C)C)c1nnc(SCC(N)=O)o1	-7%
93	CCCCOc1ccc(-c2nnn(CC(=O)NCc3ccco3)n2)cc1	-12%
94	C=CCn1c(=N)c(C(=O)NCCCOC)cc2c(=O)n3ccccc3nc21	?
95	Brc1cccc(OCCN2CCCCC2)c1	5%
96	CCOC(=O)/C=C1\SCC(=O)N1CCOc1cccc(Br)c1	-12%
97	COc1ccc(N2C(=O)C(Cl)=C(N3CCN(Cc4ccccc4)CC3)C2=O)cc1	-10%
98	COc1cc2c(cc1OC)C(c1c[nH]c3ccccc13)NCC2 (configuration not stated)	-4%
99	CCCCOC(=O)Nc1ccc(N(C)C)cc1	32µM*
100	Cn1cc(C(=O)NC2CCCCCCC2)c(=O)c2cc(S(=O)(=O)N3CCCC3)ccc21	-15%

# The listing continues:
entry	smiles	HPGD block
101	COc1ccc(-c2c(O)c3c(OC)c4c(cc3oc2=O)OC(C)(C)C=C4)cc1	-22%
102	CC1(C(=O)Nc2nccs2)Cc2ccccc2C(=O)O1 (configuration not stated)	-4%
103	CCOC(=O)N1CCN(c2nc(-c3cccs3)cc(C(F)(F)F)n2)CC1	-24%
104	Cc1ccc(NS(=O)(=O)c2cccc(C(=O)NNC(=O)NC3CCCCC3)c2)c(C)c1	-11%
105	CN(C)c1ccc(NC(=O)COC(=O)Cn2nnc3ccccc32)cc1	-2%
106	CCOC(=O)C1=C(C)OC(N)=C(C#N)C1c1c(C)nn(-c2ccc(C)cc2)c1Cl (configuration not stated)	-16%
107	O=C(/C=C/c1ccc(Br)o1)OCc1ccccc1	-19%
108	O=C(OCn1nnc2ccccc2c1=O)C1COc2ccccc2O1 (configuration not stated)	-21%
109	Fc1c(F)c(F)c(N/N=C/c2c[nH]c3ccccc23)c(F)c1F	-4%
110	CCOC(=O)c1ccc(NC(=S)NC(=O)COc2ccccc2)cc1	?
111	CCc1ccc(OCC(=O)Nc2cc(S(=O)(=O)CC)ccc2O)cc1	-1%
112	CCOc1ccc(C(=O)Nn2cnnc2)cc1	-11%
113	O=C(NC(N1CCCCCC1)C(Cl)(Cl)Cl)c1ccccc1Cl (configuration not stated)	-17%
114	COc1ccc(C2N=C(N)N=C(N)N2c2ccccc2)cc1OC (configuration not stated)	-15%
115	O=C1c2ccccc2C(=O)N1CCCON1C(=O)c2ccccc2C1=O	-19%
116	CC1CCC2C(C)(C)C3CC12CC[C@]3(C)O (some centres not stated)	-8%
117	N#CC1=C(N)OC2=C(C(=O)CCC2)C1c1ccc(OC(=O)N2CCOCC2)cc1 (configuration not stated)	-11%
118	CCC1(C)Cc2ccccc2-c2nc3n(c(=O)c21)CCS3 (configuration not stated)	-10%
119	COc1cc2c(cc1NC(=S)Nc1cccc(C(F)(F)F)c1)oc1ccccc12	?
120	COc1ccccc1-c1cc(C(F)(F)F)nc(N2CCN(c3ccc(F)cc3)CC2)n1	-24%
121	COc1ccc(N2C(=O)[C@@H]3Cc4ccccc4CN3C2=O)cc1	-6%
122	CC(C)Oc1cccc(C(=O)NC(=S)Nc2cccnc2)c1	-8%
123	CCOc1ccc(NC(=O)CCCN2C(=S)NC(C)(C)CC2C)cc1 (configuration not stated)	-1%
124	Cc1cc(C)c2nc3c(c(C(=O)O)c2c1)CCC3	-24%
125	COc1ccc(OC)c(NS(=O)(=O)Cc2ccccc2)c1	-24%

# Screening data (PubChem)

# Only part of the results is shown. The share of hits here may be higher or lower than overall.
